Screening data from PubChem BioAssay.
VDR inh: Inhibitors of the vitamin D receptor (VDR): qHTS; hit rate 0.93% among 400,000; VDR-SRC2-3 peptide fluorescence polarization, 2 h; Vitamin D3 receptor (Homo sapiens), P11473; AID 504847, 2011; Potency, µM, for the others: max response, negative = inhibition, actives largely listed as inhibitors; active = well fitted inhibition curve with a large enough effect; inconclusive = small, poorly fitted or top-dose-only effect, or another doubt; inactive = no such curve, though single readings can be large or run the other way; note: series mostly up to about 120 µM
Target sequence (P11473 whole entry, looked up): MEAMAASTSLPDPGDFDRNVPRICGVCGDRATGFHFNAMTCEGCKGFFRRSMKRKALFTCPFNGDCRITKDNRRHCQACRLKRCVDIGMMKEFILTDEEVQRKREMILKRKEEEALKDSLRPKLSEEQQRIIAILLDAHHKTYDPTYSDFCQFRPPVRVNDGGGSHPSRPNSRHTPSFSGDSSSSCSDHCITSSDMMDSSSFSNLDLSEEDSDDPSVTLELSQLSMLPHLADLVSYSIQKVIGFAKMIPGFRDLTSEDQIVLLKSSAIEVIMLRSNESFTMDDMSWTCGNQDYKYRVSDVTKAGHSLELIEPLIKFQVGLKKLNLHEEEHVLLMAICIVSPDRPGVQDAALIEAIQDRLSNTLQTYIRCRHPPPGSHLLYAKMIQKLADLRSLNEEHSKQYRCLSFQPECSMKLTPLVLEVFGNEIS
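Reagent solutions, kept cold and dark, are dispensed first; compounds are then pinned in at 23 nl, plates briefly spun, and incubated 2 h at ambient temperature. Inhibition of VDR–SRC2-3 peptide binding is read by fluorescence polarization.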
* = called active by the depositor; ? = inconclusive; & = joins results of further samples; [ ] = dose if it differs, or a comment. % is set by controls: 0 for no effect and ±100 for the full control effect; potency is the fitted concentration of half-maximal effect. Some of the compounds tested; rates above refer to the full screens.

Start of the data: the first 2 records, to show the layout:
SMILES | VDR inh
CC(=O)c1ccc(N2CCN(c3ncnc4c3c(-c3ccccc3)cn4-c3ccc(Cl)cc3)CC2)cc1 | 3.4%
O=C(NCCCN1CCOCC1)c1cc(-c2ccccc2)nc2ccccc12 | 19.4%

All compounds of this part, from the first entry:
SMILES | VDR inh
CC(=O)c1ccc(N2CCN(c3ncnc4c3c(-c3ccccc3)cn4-c3ccc(Cl)cc3)CC2)cc1 | 3.4%
O=C(NCCCN1CCOCC1)c1cc(-c2ccccc2)nc2ccccc12 | 19.4%
CCCn1cc(S(=O)(=O)c2ccccc2)c(=O)c2cc(OCC)ccc21 | -16.3%
CCOc1ccc(CNC(=O)Cn2c(=O)c3cccn3c3ccc(F)cc32)cc1OC | -1.7%
CCc1ccc(OCC(=O)Nc2ncc3c(n2)CC(C)(C)CC3=O)cc1 | 13.1%
CCC(CC)NC(=O)/C=C/c1ccccc1Cl | 50.1µM*
CCC(=O)c1ccc(OCC(O)CN(CCc2ccccc2)Cc2ccccc2)cc1 (stereo not drawn) | 2.1%
COC(=O)Cc1[nH]n(-c2nc3ccccc3s2)c(=O)c1C(C)=O | -16.2%
Cc1ccc(S(=O)(=O)Nc2ccc(Oc3cccnc3)nc2)cc1 | 12.6%
c1ccc(CN2CCN(c3cnc4ccccc4n3)CC2)cc1 | -8.3%
CCOc1ccc(NC(=O)CSc2nc(=O)n(Cc3ccccn3)c3c2CCC3)cc1 | -5.9%
CN(C)c1ccc(C(=O)N2CCCC(CCC(=O)N3CCN(c4ccccn4)CC3)C2)cc1 (stereo not drawn) | 7.9%
O=P(c1ccccc1)(c1ccccc1)c1cc(Br)cc(Br)c1OCCO | 11.4%
CN(C(=O)CSc1nnc(-c2cccc(F)c2)n1N)C1CCS(=O)(=O)C1 (stereo not drawn) | 6.2%
O=C(N/N=C\c1ccccc1OCc1ccccc1)c1ccco1 | -2.0%
CN(C)CCN(C(=O)c1ccc2ccccc2c1)c1nc2cc3c(cc2s1)OCCO3 | -15.4%
CCOc1cc(/C=N/n2cnnc2)ccc1OC(=O)c1cccc([N+](=O)[O-])c1 | 1.5%
COc1ccc(-c2nc3cc(C)ccn3c2NCc2ccc3c(c2)OCO3)cc1 | -13.0%
Cc1ccc(S(=O)(=O)NCCc2nnc(SCc3cccnc3)n2C)cc1 | 5.5%
CCN(CC)c1ccc(/C=C(\C#N)c2ccccn2)cc1 | -16.2%
CCOC(=O)C1=C(COC(=O)c2cccc(Cl)c2)NC(=O)NC1C (stereo not drawn) | -15.9%
CCc1ccc(NC(=O)CSc2nccn2C2CCCC2)cc1 | 11.1%
N#Cc1ccc(CN2CC3(CCN(C(=O)c4cccc(F)c4)CC3)C2)cc1 | -7.7%
O=C(NCc1nnc(SCC(=O)N2CCCCCC2)o1)c1ccccc1F | -2.7%
CC(C)CSc1nc2c(c(=O)[nH]c(=O)n2C)n1CCc1ccccc1 | 4.7%

Rewritten field by field: part of the list above.
> CN(C)CCN(C(=O)c1ccc2ccccc2c1)c1nc2cc3c(cc2s1)OCCO3
  VDR inh = -15.4%

> CCOc1cc(/C=N/n2cnnc2)ccc1OC(=O)c1cccc([N+](=O)[O-])c1
  VDR inh = 1.5%

> COc1ccc(-c2nc3cc(C)ccn3c2NCc2ccc3c(c2)OCO3)cc1
  VDR inh = -13.0%

> Cc1ccc(S(=O)(=O)NCCc2nnc(SCc3cccnc3)n2C)cc1
  VDR inh = 5.5%

Next part
SMILES | VDR inh
Cc1cccc(C(=O)NC(=S)NC(C)c2ccccc2)c1 (stereo not drawn) | -27.2%
COc1ccc(C(C(=O)NC2CCCC2)N(CC2CCCO2)C(=O)Cc2cccs2)cc1OC (stereo not drawn) | -1.7%
O=C(NCCS(=O)(=O)N1CCN(c2ccccc2)CC1)c1ccccc1F | 10.4%
C(=NC12CN3CN(CN(C3)C1)C2)c1ccc2c(c1)OCO2 | -15.8%
CCN(CC)CCCNc1nc(CN2CCOCC2)nc2sc3c(c12)CCC3 | -6.6%
CC/C(=C/c1sc2ccc(C)cc2[n+]1CCCS(=O)(=O)[O-])SC | -10.6%
Cc1cccc(C)c1OCc1cc(C(=O)N(Cc2c(C)nn(C)c2C)C2CC2)no1 | -7.3%
COC(=O)Cc1csc(NCc2ccccc2)n1 | 7.9%
O=C(O)c1cccc(-n2cccc2/C=N/O)c1 | 7.4%
CC(=O)NS(=O)(=O)c1ccc(NC(=O)c2ccc3c(c2)NC(=O)CS3)cc1 | -1.9%
COc1ccccc1CCCNC(=O)C1CCC(=O)N(CCCN2CCCC2=O)C1 (stereo not drawn) | 3.2%
COc1ccc(NC(=O)CCCC(=O)c2ccccc2)cc1OC | -1.5%
O=C(OCc1cc(=O)n2ccsc2n1)c1ccccc1O | 1.8%
NC(=O)c1ccsc1NC(=O)c1coc2ccccc2c1=O | -7.0%
COc1cccc(OCC(O)CN2CCN(c3ccccc3)CC2)c1 (stereo not drawn) | -4.6%&2.5%
Cc1ccc(Cl)cc1N1CCN(C(=O)c2cccc3c(=O)c(C)c(-c4ccccc4)oc23)CC1 | 6.5%
CN(C)S(=O)(=O)c1ccc(C(=O)Nc2ccc(S(=O)(=O)NC3=NCCCCC3)cc2)cc1 | 18.3%
CCOC(=O)c1c(NC(=O)c2cc3ccccc3c(=O)o2)sc2c1CCCC2 | -4.5%
COc1ccccc1NS(=O)(=O)c1ccc(NN=C2CCCCC2)c([N+](=O)[O-])c1 | -18.2%
Cc1cc(NC(=O)c2ccccc2Cl)ccc1NC(=O)c1ccccc1Cl | -4.5%
COc1cc(CNCc2cccnc2)ccc1OCC(=O)NC(C)(C)C | -14.7%
Cc1nc(C)c(-c2csc(Nc3ccc(C(=O)O)c(O)c3)n2)s1 | -3.3%
CCOc1cc(C2C(C#N)=C(N)SC(N)=C2C#N)ccc1OCCN1CCOCC1 | ?
N#Cc1cnn2c(-c3cccc(C(F)(F)F)c3)ccnc12 | -7.6%
CCCCc1cc(=O)oc2cc(C)cc(OCC(=O)Nc3ccccn3)c12 | 10.3%
SMILES | VDR inh
CCn1cc(CNC(=O)c2ccc(C)s2)cn1 | 19.8%
CC(C)c1cccc(C(C)C)c1NC(=O)CN1CCCC1 | -0.8%
Cc1cccc(C)c1NC(=O)CSc1n[nH]c(=O)n1C1CC1 | 12.6%
Cc1cc(C)cc(CC(Cc2nc3ccccc3[nH]2)c2nc3ccccc3[nH]2)c1 (stereo not drawn) | -6.4%
O=C(CCCCl)Nc1nc(-c2ccc3c(c2)OCCO3)cs1 | 2.9%
Nc1nc(-c2ccco2)nn1C(=O)c1ccc(Cl)cc1 | 6.5%
CCOC(=O)C1(CC2CCCCO2)CCN(S(=O)(=O)c2cc(C)cs2)CC1 (stereo not drawn) | -6.2%
CC(C)(C)NC(=O)CN(C(=O)c1snc(C(=O)NC2CCCCC2)c1N)c1ccc(F)cc1 | 11.3%
CCN1CCN(Cc2cc(=O)oc3ccc(C)cc23)CC1 | -0.8%
CCOCCCN(C(=O)Cn1nnc(-c2ccc(C)o2)n1)C(C(=O)NCC1CCCO1)c1ccc(F)cc1 (stereo not drawn) | -14.6%
Nc1nc(N)c2sc3nc(C(F)(F)F)cc(C(F)(F)F)c3c2n1 | -4.5%
CCOc1ccccc1C(=O)Oc1c(Sc2ccccc2)c(C)nn1C(C)(C)C | -25.1%
CC(c1c(O)c2ccccc2[nH]c1=O)C1(C)CCC(O)C(C)(C)O1 (stereo not drawn) | -1.2%
NCCC[C@@H](CC(=O)N[C@@H]1CCNC[C@H]1C(=O)N[C@H](CC(=O)N[C@@H](CCC(=O)O)CC(=O)O)Cc1c[nH]c2ccccc12)NC(=O)C[C@H](CO)NC(=O)[C@@H]1CNCC[C@H]1N | -1.1%
O=C(c1ccnc(Cl)c1)N1CCCC(Nc2ccc(F)cc2)C1 (stereo not drawn) | 15.8%
COc1cc(NC(=O)CCS(=O)(=O)c2ccc3c(c2)n(C)c(=O)c(=O)n3C)cc(OC)c1 | -8.7%&11.3%
FC(F)(F)c1ccccc1NC(=S)N1CCN(c2ncccn2)CC1 | 2.5%
Cc1ccc[n+](CC(=O)Nc2ccc([N+](=O)[O-])cc2Cl)c1 | 15.1%
Cc1c(CCC(=O)O)c(=O)oc2cc3occ(-c4ccccc4)c3cc12 | 8.1%
Cc1cccc(S(=O)(=O)N(CC(=O)Nc2ccccc2C)Cc2ccco2)c1 | -4.3%
CCC(C)NC(=O)c1ccc(CSCc2ccc(Cl)cc2)o1 (stereo not drawn) | 13.2%
CC(C)(C)c1ccc(SCCc2ccncc2)cc1 | -1.0%
CCOc1ccc(Br)cc1S(=O)(=O)Nc1ccc(NC(=O)c2ccccc2C)cc1 | 4.7%
O=C(Nc1ccnn1C1CCN(Cc2ccccc2OCCO)CC1)c1cccc(F)c1 | -15.0%
Cc1nc(SCC(=O)NCCc2ccccc2)c2oc3ccccc3c2n1 | 3.1%
SMILES | VDR inh
COc1ccc(Nc2nc(C)nc3c2nnn3Cc2ccccc2)cc1OC | 7.7%
CC(=O)Nc1ccc(NC(=S)NC(=O)/C=C/c2ccc(Cl)cc2)cc1 | 1.4%
CCOC(=O)c1cc(-c2ccc(OC)cc2)n(CCC(=O)NCc2ccccc2OC)c1C | -6.6%
Cc1ccc(O)c(NC2=C(Cl)C(=O)N(Cc3ccccc3)C2=O)c1 | ?
CCOc1ccc(C(=O)NCC(=O)NNC(=O)CN(C)S(=O)(=O)c2ccc(Cl)cc2)cc1 | -2.6%
Cc1ccc(-n2nc(C)c(Sc3ccccc3[N+](=O)[O-])c2N)cc1 | ?
COc1ccccc1CCNC(=O)C(=O)NCC1OCCN1C(=O)c1ccc(Cl)cc1 (stereo not drawn) | 8.2%
CC1O[C@H](OC2C(COC3OC(CO)C(O)[C@H](O)C3O)OC(OC3CC[C@]4(C)C(CC[C@@]5(C)[C@@H]4C=C[C@]46OC[C@@]7(CCC(C)(C)C[C@H]74)C(O)C[C@@]56C)C3(C)C)C(O)C2O)C(O)C(O)C1O (stereo partly drawn) | 3.1%
O=C(CN(C(=O)c1csnn1)c1cccc(F)c1)NCc1ccc(F)cc1 | -5.7%
COc1ccc(N(CCN2C(=O)c3ccccc3C2=O)C(=O)c2cccc([N+](=O)[O-])c2)cc1 | 17.3%
CCOC(=O)c1ccc(N2CCN(c3ccc(F)cc3)CC2)c(NC(=O)Nc2cccc(OC)c2)c1 | -6.0%&-22.5%
Cc1cc(NC(=O)CCNS(=O)(=O)c2cc(Br)cnc2N)ccc1Br | -0.7%
CCOc1ccc(CC(=O)Nc2nnc3n2CCS3)cc1 | -2.2%
CC(C)Cc1nc(Cl)c(C#N)c2c1CCC2 | -14.2%
CCCn1c(=O)c2ccccc2n2c(SCCOc3ccc(Cl)cc3)nnc12 | 4.5%
Cc1ccc(OCc2nc(-c3ccc(-n4cccc4)cc3)no2)cc1C | -20.5%
CCc1ccc(-c2nc(-c3ccncc3)no2)cc1 | -15.8%
O=[N+]([O-])c1ccc(NCCNS(=O)(=O)c2ccccc2)c(C(F)(F)F)c1 | 3.2%
O=C(N/N=C/c1cccnc1)c1ccc(NC(=O)c2ccc(Cl)cc2)cc1 | -5.3%
O=C(O)c1cnc(-c2ccccc2)nc1Sc1ccc(Cl)cc1 | -1.8%
O=C(CC1CC2CCC1C2)NC1CCCCCCC1 (stereo not drawn) | 67.2%[activator]
COc1ccc(S(=O)(=O)NCCCN2CCCC2=O)cc1OC | -17.8%
CCNC(=S)N/N=C/c1cn(Cc2ccccc2F)c2ccccc12 | -3.5%
Cc1ccc(NC(=O)CSc2nc(N)cc(=O)[nH]2)cc1S(=O)(=O)N1CCCCC1 | 0.0%
CO/N=C(\C)c1ncc(C(F)(F)F)cc1N1CCOCC1 | -3.7%
SMILES | VDR inh
COc1ccc(-c2cc(C(=O)NCc3cccnc3)no2)cc1 | 2.3%
CN(C(=O)c1ccc(NC(=O)Cc2ccc(NC(=O)C3CCN(S(=O)(=O)c4cccc([N+](=O)[O-])c4)CC3)cc2)cc1)C1CCCC1 | 6.5%
COc1ccc(NC(=O)C2CCN(C(=O)c3ccccc3)CC2)c(OC)c1 | 2.5%
CC1CCCN(C(=O)C2COc3ccccc3O2)C1 (stereo not drawn) | -4.9%
O=C(O)c1ccccc1NS(=O)(=O)c1ccc(N/N=C/c2cccc(O)c2O)c([N+](=O)[O-])c1 | -27.4%
COc1cccc(OC)c1C(=O)Nn1c(C2CCC2)nc2ccccc2c1=O | 3.2%
O=C(/C=C/c1cccc(Cl)c1)c1nc2ccccc2[nH]1 | 44.7µM*
CC1=C(C(=O)Nc2ccccc2)C(c2ccncc2)n2nc(SCc3ccccc3)nc2N1 (stereo not drawn) | -9.8%
Cc1nnc(NC(=O)CC(CN(C)S(=O)(=O)c2ccccc2)c2ccccc2)s1 (stereo not drawn) | -28.5%
COCCn1c(SCC(=O)Nc2cccnc2Cl)nc2ccccc2c1=O | -16.5%
C=CCN=C1SC(C)(C)C(=O)N1S(=O)(=O)c1ccc(C)cc1 | 15.0%
Cc1cc(CN(C)C)c(O)c(C2(C)CCCCC2)c1 | -5.7%
C=CC[N+](C)(C)c1ccc(CCC(=O)CCc2ccc([N+](C)(C)CC=C)cc2)cc1 | -17.7%
O=C(O)c1ccc(CNC(=O)C23CC4CC(CC(C4)C2)C3)cc1 | -3.6%
O=C(NCc1cccs1)C1CCC(=O)N1C1CCCCC1 (stereo not drawn) | -0.1%
COc1cc(C(=O)OCc2ccc([N+](=O)[O-])cc2)cc(OC)c1OC | -15.7%
COc1ccc(C(=O)NN/C(C)=C/C(=O)c2ccccc2)cc1 | -3.9%
Cc1ccc(S(=O)(=O)N2CCC(NC(=O)C3CCCCC3)CC2)cc1 | 7.0%
CCc1ccc(CN(C)C(=O)CCc2nnc(CCc3cccc(OC)c3)o2)nc1 | -13.8%

Part of the list above, as tab-separated lines:
Molecule	VDR inh
O=C(O)c1ccc(CNC(=O)C23CC4CC(CC(C4)C2)C3)cc1	-3.6%
O=C(NCc1cccs1)C1CCC(=O)N1C1CCCCC1 (stereo not drawn)	-0.1%
